Autofluor counter: counter-screen for toxin protease inhibitors: compound fluorescence | compound autofluorescence counterscreen, microsphere flow cytometry; active compounds read high | 3.1% of 360,000 active | fluorescence intensity (no concentration beside the values);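 active means at least 3 SD above the mean of all compounds, about 16000 in these data; inconclusive means too few beads counted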;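 further: 100 nL of 1 mM stock went into each well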
PrP UTR inh: inhibition of PrP 5' UTR reporter expression; cell-based PrP 5' UTR mRNA reporter, plate reader; inhibition, % (concentration not given with the values); 0.35% of 340,000 active;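 active means every replicate at 50% or more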;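 further: 0 = median of the neutral control wells; tested in H4 reporter cells; numbers are from one replicate; inactives centre near -14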
Mtb hypoxia rep: reduces hypoxia-regulated biosensor signal in M. tuberculosis. M. tuberculosis hypoxia-regulated fluorescent reporter, fluorescence. fluorescence inhibition, % (test concentration not listed). 0.1% of 300,000 active. AID 1159583;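 active means 35 to 45% if threefold the growth effect, above 45% if 1.5-fold the growth effect; inactive means the rest, general growth blockers included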;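 further: wells of about 50 µL received 100 nL stock; 0% = vehicle wells and 100% = reference inhibitor wells; whole bacteria with a GFP reporter of the hypoxia response; strong numbers were not always called active; many hits fall short of the cut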
Sa ugtP lethal: kills S. aureus RN4220 lacking UgtP. S. aureus RN4220 ugtP deletion, OD600 growth, 16 h; some inactives read as strong as hits. growth inhibition, % (test concentration not listed). 0.54% of 330,000 active;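 active means z-score under -3 and OD600 up to 0.15 on both plates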;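 further: plate controls were untreated wells for no effect and antibiotic for full effect; wells of about 80 µL received 100 nL stock; the first replicate is given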
Sa RN4220 lethal: kills Staphylococcus aureus RN4220; 0.33% of 330,000 active; S. aureus RN4220 growth, OD600, 16 h; inhibition, % (no concentration beside the values);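 active means z-score of -3 or lower and OD600 up to 0.18 on both plates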;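 further: plate controls were untreated cells for no effect and reference antibiotic for full effect; stock transfer was 100 nL into about 80 µL; one replicate is shown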
BJeLR viability: kills HRASV12-expressing BJeLR cells; inhibition, % (concentration not given with the values); BJeLR (HRASV12) viability, CellTiter-Glo ATP luminescence, 48 h; reference of the scale not given here; 0.17% of 300,000 active;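 active means replicate mean above 50%; inconclusive means above 50% but judged a plate artefact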;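 further: 50 nL library stock added to about 25 µL; numbers are from one replicate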
Mtb hypoxia rep growth: also measured in Mtb hypoxia rep; calls as there; growth inhibition, %; measured here: M. tuberculosis growth (absorbance);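 0% = vehicle and 100% = reference antibiotic; read after six days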
Numbers without * were called inactive; ? = inconclusive; . = not tested or not shown.

Order of values – BJeLR viability	Sa ugtP lethal	PrP UTR inh	Sa RN4220 lethal	Mtb hypoxia rep growth	Autofluor counter	Mtb hypoxia rep
- O=C(NCC(=O)N(c1cccnc1)C(C(=O)NCc1ccco1)c1ccccc1)c1ccco1 (stereo unspecified)
  6	12	0	8.7	5	3120	7
- CCOC(=O)CC1(C)OCC(C[N+]2(C)CCCCC2)O1 (stereo unspecified)
  2	-2	-44	-2.3	-1	4364	5
- CCCCOC(=O)Nc1nc2ccc([N+](=O)[O-])cc2s1
  -3	7	-16	9.3	4	4040	10
- Cc1cc(C)c(C(=O)CSc2nnc(N)s2)cc1C
  0	2	-6	7.1	10	4396	12
- O=C(Nc1ccccc1N1CCCC1)c1cc2ccccc2o1
  -3	2	-20	1.0	6	10962	-12
- CCc1ccc(/C=C2\SC(=S)N(CCCC(=O)Nc3ccccc3C(=O)O)C2=O)cc1
  0	.	3	.	.	4608	.
- COc1ccc(S(=O)(=O)N2CCCCC2)cc1C(=O)N1CCCCCC1
  7	4	-17	3.8	10	6912	12
- CCC1(C)Cc2ccccc2C(=S)N1 (stereo unspecified)
  5	12	-12	0.8	7	1995	-1
- Cc1ccc(S(=O)(=O)N2CCC(=O)N(C(COCc3cccc(C(F)(F)F)c3)C(C)C)CC2)cc1 (stereo unspecified)
  -4	16	-9	5.8	10	4185	7
- CCOCCCNC(=O)C(NC(=O)CNC(=O)c1ccccc1)c1ccccc1 (stereo unspecified)
  -4	2	-3	-0.3	5	6733	9
- O=C(Cn1cnc2ccccc2c1=O)N1CCc2ccccc2C1
  -12	2	0	3.3	7	4164	12
- CCN(CC)S(=O)(=O)c1cc(OC)ccc1N=Nc1ccc(O)c2ncccc12
  31	.	29	.	.	2573	.
- Cc1ccc(CN2C(=O)C(C)Oc3ccccc32)cc1 (stereo unspecified)
  -3	4	-3	5.3	4	4154	15
- CC(=O)NCCc1nc2ccccc2n1CCCCOc1ccccc1
  -4	-6	-18	6.8	3	3629	-8
- Cc1ccc(N(CC(=O)N2CCOCC2)S(C)(=O)=O)cc1
  -1	-4	-12	5.8	2	4114	10
- O=C(OCC(=O)N1CCCCC1)c1cc(S(=O)(=O)N2CCOCC2)c(Cl)cc1Cl
  .	1	-40	3.3	10	3683	18
- O=C(C(NS(=O)(=O)c1cccs1)c1ccccc1)N1CCN(c2ccccc2)CC1 (stereo unspecified)
  -6	9	-22	2.4	4	12265	7
- O=C(NCc1cccc(Br)c1)C1CC(c2cc(C(F)(F)F)cc(C(F)(F)F)c2)=NO1 (stereo unspecified)
  -1	2	-9	6.8	6	3071	4
- COC(=O)[C@]1(Cc2ccccc2)N[C@H](c2ccc(-c3cc(C(C)=O)cs3)cc2)[C@@H]2C(=O)N(C)C(=O)[C@@H]21
  -8	.	10	.	.	3281	.
- Cc1ccc2nc(C)cc(C(=O)NC3CCCCCC3)c2c1
  .	5	2	2.0	-4	2914	-6
- O=C(NCCCN1CCCC1=O)c1cccc(NS(=O)(=O)c2ccccc2)c1
  0	4	-18	3.7	1	5816	-1
- COc1ccc(S(=O)(=O)Cc2ccc(C(=O)NCc3cccs3)o2)cc1
  -5	.	-19	.	.	5637	.
- CCCCOc1ccc(-c2nnn(CCC(=O)N3CCOCC3)n2)cc1
  -3	5	-46	6.3	13	11557	18
- COc1ccccc1N1CCN(Cc2cnc(-c3ccccc3)[nH]2)CC1
  -9	6	-13	3.1	-4	5483	8
- O=C(CCc1ccccc1)NNC(=O)c1ccccc1C(=O)O
  -1	.	-28	.	.	10563	.
- N/C(Cc1ccccc1Sc1ccccc1)=N\O
  -4	.	7	.	.	2774	.
- CC(C)C(C)NC(=O)COc1ncnc2sccc12 (stereo unspecified)
  -7	7	-22	-0.6	13	4021	12
- N#Cc1ccc(CSc2nnc(-c3ccccn3)n2-c2ccc(Cl)cc2)cc1
  -3	4	-8	6.9	-16	3431	-94
- CN(CC(=O)NC(=O)NC(C)(C)C)CC(=O)Nc1ccccc1Cl
  -4	4	-37	2.8	12	3616	9
- Cc1cc2c(Nc3ccc(O)cc3)ncnc2s1
  1	-6	-17	4.7	10	3664	-3
- Cc1nc(SCCOc2ccc(F)cc2)c2ccccc2n1
  -22	32	-13	14	-11	2152	3
- CC(C)n1c(=O)c(C=Nc2cccc([N+](=O)[O-])c2)c(O)n(CCc2ccccc2)c1=O
  -8	-1	5	6.8	-10	2408	-9
- Cc1nc2c(C)cccc2c2c1COC2
  -8	2	-16	1.1	-4	4134	0
- CCOc1ccccc1NC(=O)C1CCN(S(=O)(=O)c2c(C)nn(C)c2C)CC1
  14	4	-17	6.4	2	6260	2
- COc1ccc2nc(SCCC(=O)O)cc(C)c2c1
  -2	3	-8	3.8	-2	4099	17
- CCOc1ccccc1NC(=O)CCS(=O)(=O)c1ccc2c(c1)CC(C)N2C(C)=O (stereo unspecified)
  0	8	-26	3.4	-9	.	-4
- COc1cc(C=CC(=O)O)cc(OC)c1O
  .	18	.	11	11	.	12
- CCC(=O)c1cn(CC(=O)NCC2CCCO2)c2ccccc12 (stereo unspecified)
  2	7	-11	6.2	7	7248	6
- CC(=O)Nc1ccc(S(=O)(=O)NCC(=O)NCCCc2ccccc2)cc1
  -9	7	-9	1.9	-4	4909	-1
- CCC(=O)N1CCc2cc(S(=O)(=O)NCCC(=O)NCc3ccccc3OC)ccc21
  0	1	-14	3.0	-2	6100	-2
- C=CCN(CC=C)C(=O)CN1C(=O)NC(Cc2c[nH]c3ccccc23)C1=O (stereo unspecified)
  -3	9	-13	1.1	1	2874	-3
- COc1ccc(C(=O)NCC(=O)OCC(=O)Nc2cccc(S(=O)(=O)N3CCCC3)c2)cc1
  -4	-1	-28	-1.7	2	4212	6
- CCOc1ccccc1OCCOCCOc1ccccc1[N+](=O)[O-]
  -3	4	-26	10	15	2056	7
- CCn1c(CN2CCN(C(c3ccccc3)c3ccccc3)CC2)nc2c1c(=O)n(C)c(=O)n2C
  -3	4	10	2.1	-4	3791	4
- COc1cc(CNC2CCCC2)cc(Cl)c1OCc1ccccc1F
  2	-18	-10	-1.9	12	5466	16
- COc1ccc(/C=C/C(=O)Nc2ccccc2C(F)(F)F)cc1
  -4	4	-26	2.1	3	2355	8
- Cn1c(SCC(=O)NCC2CCCO2)ncc(C(=O)Nc2ccc(F)cc2)c1=O (stereo unspecified)
  12	5	-15	0.4	2	?	12
- Cc1ccc2cc(C#N)c(SCC(=O)N3CCCc4ccccc43)nc2c1
  -2	-10	-4	-1.9	4	2479	-9
- O=C(c1cc(COc2ccc(F)cc2Cl)on1)N(CCO)Cc1cccs1
  -1	-8	-4	3.5	0	6281	12
- CCCCn1c(=N)n(CC(=O)C(C)(C)C)c2ccccc21
  -13	5	1	3.0	2	3468	12
- Clc1ccc(-c2noc3c2-c2nc(Cc4cccc5ccccc45)sc2CC3)cc1
  -2	-8	-12	-13	5	2795	4
- CN1CCN(C(=O)c2cc(S(=O)(=O)Nc3ccccc3F)c(Cl)cc2Cl)CC1
  0	1	-14	0.7	-2	6289	3
- COc1ccc(CN(CC(O)COc2cccc3[nH]cc(C)c23)C(C)(C)C)cc1 (stereo unspecified)
  1	10	-10	3.1	6	3877	3
- CCN(CC)CCn1c(NCc2ccc3c(c2)OCO3)nc2ccccc21
  0	4	-24	6.7	9	3758	8
- CCOc1ccc(NC(=O)CN2C(=O)COc3ccc(S(=O)(=O)N4CCCC4)cc32)cc1
  4	4	-27	-1.6	12	5522	4
- CCc1ccccc1N(C1=NCCCS1)S(=O)(=O)c1ccc(C(C)(C)C)cc1
  -2	14	2	0.3	-1	1941	-5
- O=C(C1CCC(=O)N(C2CC2)C1)N1CCC(Oc2ccccc2F)CC1 (stereo unspecified)
  -2	1	-18	0.0	-8	6544	4
- O=C(Cn1cnc2ccccc21)OCC(=O)N1CCCc2ccccc21
  9	5	-8	2.5	.	4189	.
- CCc1ccc(NC(=O)NCc2ccc3c(c2)OCO3)cc1
  7	5	-14	2.0	12	4859	15
- CC(C)Oc1ccc(Cc2n[nH]c(=S)n2Cc2ccccc2)cc1Cl
  5	3	-5	18	7	4772	12

Filtered by structure, those above with a cyano group (two)
Order of values – BJeLR viability	Sa ugtP lethal	PrP UTR inh	Sa RN4220 lethal	Mtb hypoxia rep growth	Autofluor counter	Mtb hypoxia rep
- N#Cc1ccc(CSc2nnc(-c3ccccn3)n2-c2ccc(Cl)cc2)cc1
  -3	4	-8	6.9	-16	3431	-94
- Cc1ccc2cc(C#N)c(SCC(=O)N3CCCc4ccccc43)nc2c1
  -2	-10	-4	-1.9	4	2479	-9

(list continues)
Order of values – BJeLR viability	Sa ugtP lethal	PrP UTR inh	Sa RN4220 lethal	Mtb hypoxia rep growth	Autofluor counter	Mtb hypoxia rep
- CC(NC(=O)CCC(=O)N1CCN(S(=O)(=O)c2ccc(Cl)cc2)CC1)c1ccccc1 (stereo unspecified)
  1	-3	-8	6.1	7	2327	1
- C=CCNC(=S)NC(=O)c1ccc(C)c(Br)c1
  -4	9	-81	7.4	14	4171	12
- CCCCCCCCCCCCN1C(CC(C)=O)c2cc(F)cc(F)c2S1(=O)=O (stereo unspecified)
  .	8	.	1.6	8	.	15
- Cc1cc(C)cc(C(=O)NCC(=O)OCC(=O)N(C)C2CCS(=O)(=O)C2)c1 (stereo unspecified)
  -3	4	-20	0.0	1	2027	2
- O=C(N/N=C/c1cn(Cc2ccccc2)c2ccccc12)c1cc(O)cc(O)c1
  0	.	0	.	.	4433	.
- CCOC(=O)N1CCN(C(=O)C(C)c2ccc([N+](=O)[O-])cc2)CC1 (stereo unspecified)
  0	8	-28	0.2	10	3887	9
- COc1cccc(NC(=O)CSc2nnc3cc(C)nc(N)n23)c1
  8	-7	-3	1.6	18	5010	4
- CCCCC/C(=N\O)c1c[nH]c2ccccc12
  12	.	-10	.	.	7063	.
- Cc1ccc(Oc2nc3ccccn3c(=O)c2/C=C(\C#N)C(=O)NC2CCS(=O)(=O)C2)c(C)c1 (stereo unspecified)
  5	4	-14	3.0	12	5315	4
- COC(=O)c1ccccc1NC(=O)COc1ccc(S(=O)(=O)N2CCCC2)cc1C
  -4	6	-14	2.2	-2	5811	7
- Cn1nc(SCC(=O)O)sc1=S
  -2	-1	-47	4.3	9	10380	7
- COc1cccc(Nc2ncccc2C(=O)NCc2ccccc2)c1
  .	-4	-19	1.8	7	4681	-6
- O=C(NNS(=O)(=O)c1ccc(Cl)cc1Cl)c1cc2ncc(C(F)(F)F)cc2s1
  3	4	-38	-3.6	-4	3450	4
- Oc1cccc(Nc2nc(-c3ccccc3)nc3ccccc23)c1
  -4	17	-6	-12	-22	3958	2

In the list so far, 10 contain a Cl atom:
Order of values – BJeLR viability	Sa ugtP lethal	PrP UTR inh	Sa RN4220 lethal	Mtb hypoxia rep growth	Autofluor counter	Mtb hypoxia rep
- O=C(OCC(=O)N1CCCCC1)c1cc(S(=O)(=O)N2CCOCC2)c(Cl)cc1Cl
  .	1	-40	3.3	10	3683	18
- N#Cc1ccc(CSc2nnc(-c3ccccn3)n2-c2ccc(Cl)cc2)cc1
  -3	4	-8	6.9	-16	3431	-94
- CN(CC(=O)NC(=O)NC(C)(C)C)CC(=O)Nc1ccccc1Cl
  -4	4	-37	2.8	12	3616	9
- COc1cc(CNC2CCCC2)cc(Cl)c1OCc1ccccc1F
  2	-18	-10	-1.9	12	5466	16
- O=C(c1cc(COc2ccc(F)cc2Cl)on1)N(CCO)Cc1cccs1
  -1	-8	-4	3.5	0	6281	12
- Clc1ccc(-c2noc3c2-c2nc(Cc4cccc5ccccc45)sc2CC3)cc1
  -2	-8	-12	-13	5	2795	4
- CN1CCN(C(=O)c2cc(S(=O)(=O)Nc3ccccc3F)c(Cl)cc2Cl)CC1
  0	1	-14	0.7	-2	6289	3
- CC(C)Oc1ccc(Cc2n[nH]c(=S)n2Cc2ccccc2)cc1Cl
  5	3	-5	18	7	4772	12
- CC(NC(=O)CCC(=O)N1CCN(S(=O)(=O)c2ccc(Cl)cc2)CC1)c1ccccc1 (stereo unspecified)
  1	-3	-8	6.1	7	2327	1
- O=C(NNS(=O)(=O)c1ccc(Cl)cc1Cl)c1cc2ncc(C(F)(F)F)cc2s1
  3	4	-38	-3.6	-4	3450	4

Assay outcomes: PubChem BioAssay, several laboratories

The order is random; overall some 3.9% were active at least once.
